CtBP-E1A blk – CtBP/E1A binding inhibition; AlphaScreen GST-E1A/His-CtBP binding, 1536-well; hits give low values; control for the full effect not named in the record; activity change, % (test concentration not listed); actives 0.49% (n = 340,000); AID 651724; in the data active means activity change below about -65%; inconclusive means about -30% to -65%; inactive means above about -30%; note: % is set by controls: 0 for no effect and ±100 for the full control effect; compound concentration not given in the record
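GST-E1A and His-tagged CtBP (125 nM each as 5X stock) were preincubated with pin-transferred compound for 2 h at 37 °C in the dark, then glutathione donor and nickel acceptor beads were added for 1 h before AlphaScreen reading.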
Menin MLL FP FL – menin-MLL binding inhibition, fluorescein peptide; Fluorescence polarization, fluorescein-MLL peptide displacement from menin; FP activity change, % at 61.4 µM; 290,000 tested, under 10 active; inconclusive = falling polarisation curve, or a change in total fluorescence; inactive = total fluorescence flat and polarisation flat or rising; no compound was filed as active; the % refers to the polarisation; negative = inhibition;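 note: % of control where 0% means no effect; inhibitors lower the polarisation; unlabelled MLL peptide was the positive control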
TRPV1 PAM – enhances activation of the human vanilloid receptor TRPV1 | Q8NER1 | TRPV1-expressing cells, Fluo-8 calcium influx, capsaicin EC20 potentiation; host cell line not named in the record; control for the full effect not named in the record | potentiation, % at 8.33 µM | actives 0.02% (n = 320,000); active means potentiation above 80%; inconclusive means 30% to 80%; inactive means below 30%; note: 0% is about no effect
Target sequence (Q8NER1 whole entry, looked up): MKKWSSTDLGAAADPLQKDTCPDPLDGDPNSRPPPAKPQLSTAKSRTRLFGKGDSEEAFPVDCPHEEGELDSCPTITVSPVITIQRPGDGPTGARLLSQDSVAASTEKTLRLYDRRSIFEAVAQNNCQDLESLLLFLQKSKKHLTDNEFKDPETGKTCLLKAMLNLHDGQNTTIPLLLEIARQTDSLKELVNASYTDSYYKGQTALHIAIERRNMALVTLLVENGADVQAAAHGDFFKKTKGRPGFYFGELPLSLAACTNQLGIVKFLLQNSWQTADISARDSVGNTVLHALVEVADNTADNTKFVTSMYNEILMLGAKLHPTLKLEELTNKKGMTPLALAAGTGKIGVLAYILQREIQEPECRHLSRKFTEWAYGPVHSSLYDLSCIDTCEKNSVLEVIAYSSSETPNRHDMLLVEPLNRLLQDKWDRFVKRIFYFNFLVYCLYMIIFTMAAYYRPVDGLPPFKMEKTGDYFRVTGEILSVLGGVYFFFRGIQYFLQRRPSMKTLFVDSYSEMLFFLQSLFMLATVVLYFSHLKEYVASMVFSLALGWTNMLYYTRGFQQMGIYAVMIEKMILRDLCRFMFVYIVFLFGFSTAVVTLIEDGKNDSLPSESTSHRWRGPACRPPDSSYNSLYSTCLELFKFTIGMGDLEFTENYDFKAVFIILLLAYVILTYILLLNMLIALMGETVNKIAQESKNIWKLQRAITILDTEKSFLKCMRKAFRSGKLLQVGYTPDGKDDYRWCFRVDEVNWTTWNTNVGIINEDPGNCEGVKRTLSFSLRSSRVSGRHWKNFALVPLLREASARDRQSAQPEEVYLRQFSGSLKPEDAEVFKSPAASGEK
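Fluo-8 calcium influx in TRPV1-expressing cells, kinetic read (ex 480/em 520 nm). Compound added and read 3 min for agonist activity, followed by capsaicin at EC20 final and 2 min further read for enhancement.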
ClpP mod – qHTS Assay for Activators of ClpP; purified B. subtilis ClpP, FRET peptide cleavage, 20 min; Potency, µM (doses to about 57.5 µM), for the others: at the highest dose activity change, negative = active; AID 651965, 2013; actives 1.9% (n = 340,000); active = well fitted falling curve with a large enough effect; inconclusive = small, poorly fitted or top-dose-only effect; inactive = no such curve, though single readings can be large or run the other way; note: potency is the fitted concentration of half-maximal effect; the source files actives as falling curves though it sought activators and does not explain the sign; nearly all actives have a fitted effect of over 65% in size; many hits overshoot -100%
Target sequence (P80244 whole entry, looked up): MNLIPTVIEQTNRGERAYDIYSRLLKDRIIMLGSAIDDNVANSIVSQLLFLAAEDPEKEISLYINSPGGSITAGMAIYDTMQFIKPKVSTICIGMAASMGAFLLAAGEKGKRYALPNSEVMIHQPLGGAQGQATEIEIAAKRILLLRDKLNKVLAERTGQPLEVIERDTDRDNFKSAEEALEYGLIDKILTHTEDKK
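FRET quenching reversal measured ClpP activation: 10 microg/mL B. subtilis ClpP at pH 8 with the FRET-FV decapeptide, read at 430 nm after 320 nm excitation. The 20-min minus 0-min signal was scaled between DMSO/no-enzyme wells and ADEP (5.8 microM final).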
gsp antagonist – gsp mutant antagonism; gsp-mutant cells, cAMP HTRF, 30 min; control for the full effect not named in the record; Potency, µM (highest dose often 76.9 µM), without a hit: at the highest dose activity change, negative = inhibition, hits mostly inhibitors; actives 0.4% (n = 340,000); AID 624288; active = falling curve of any shape with a large fitted effect; inconclusive = falling curve, mostly with a smaller effect; inactive = flat or rising curve; cell line not stated here;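 note: intracellular cAMP measured with PDE inhibitor Ro 20-1724 present during compound exposure; potency is the fitted concentration of half-maximal effect; % is set by controls: 0 for no effect and ±100 for the full control effect; nearly all actives have a fitted effect of over 65% in size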
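Cells in G418 medium, seeded 16-24 h, 37C; buffer exchange to DPBS + 1 mM CaCl2, 0.5 mM MgCl2, 0.05% BSA; cpds in DMSO + […] (300 uM stock), 30 min 37C; HTRF cAMP detection.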
Sfp PPTase inh – Sfp phosphopantetheinyl transferase inhibition; Q9F4F7; Biochemical Sfp PPTase activity, qHTS; Potency, µM, for inactives: max response, negative = inhibition, most hits filed as inhibitors; actives 3.5% (n = 310,000); AID 1490; active = well fitted inhibition curve with a large enough effect; inconclusive = small, poorly fitted or top-dose-only effect, or another doubt; inactive = no such curve, though single readings can be large or run the other way;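 note: the enzyme is Sfp with the accession as filed and its product quenches rhodamine fluorescence; potency is the fitted concentration of half-maximal effect; 0% = enzyme reaction without inhibitor and -100% = no enzyme wells; top concentration of the series not given in the record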
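Buffer: 50 mM Hepes-Na pH 7.6, 10 mM MgCl2, 0.01% Nonidet P-40, 0.01% BSA. Enzyme 15 nM, pre-exposed to compound 15 min; substrates then added and fluorescence change tracked over 30 min.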
gsp agonist – gsp mutant agonism; gsp mutant cells, cAMP HTRF, 30 min; control for the full effect not named in the record; Potency, µM (series often up to 76.9 µM), without a hit: at the highest dose activation (cAMP increase), hits mostly activators; actives 0.13% (n = 340,000); AID 624287; active = well fitted activation curve with a large enough effect; inconclusive = small, poorly fitted or top-dose-only effect, or another doubt; inactive = no such curve, though single readings can be large or run the other way; cell line not stated here;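 note: phosphodiesterase inhibitor Ro 20-1724 added with compounds to block cAMP breakdown; potency is the fitted concentration of half-maximal effect; nearly all actives have a fitted effect of over 60% in size; about a fifth of the inactives were tested at one dose only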
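Cells stably selected in G418 were plated at 2000/well, grown 16-24 hr, then given compounds in DMSO with the PDE inhibitor […] (300 uM solution added) for 30 min at 37C; cAMP was read by HTRF.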
An asterisk follows results filed as active; ? = inconclusive; . = no result given; [ ] = remark or other dose.

no. | smiles | CtBP-E1A blk | Menin MLL FP FL | TRPV1 PAM | ClpP mod
1 | C=CCSc1nc(C)c(CC(=O)OCC(C)C)c(=O)[nH]1 | 3.0 | 3.3 | -4.9 | 1.5%
2 | CC(C)(C)CC(=O)Nc1nnc(SCC(=O)N2CCCCC2)s1 | -6.5 | 2.9 | -4.8 | .
3 | CC1CCCC(C)N1C(=O)Cn1cc(/C=C2/C(=O)Nc3ccccc32)c2ccccc21 (stereo not drawn) | -10.5 | 0.9 | 6.4 | -2.1%
4 | O=C(CCc1nnc(CCCCc2ccccc2)o1)NCCCc1cccnc1 | 6.5 | 3.0 | 3.8 | 2.8%
5 | COc1ccc(-n2c(N)c(C(=O)NCc3ccco3)c3nc4ccccc4nc32)cc1OC | -9.1 | 4.0 | -4.1 | .
6 | Cc1cc(C)c(NC(=O)CSc2nnc(CN3CCOCC3)n2C)c(C)c1 | 6.8 | -3.3 | 0.5 | .
7 | CCCn1c(CN2CCN(C(=O)OCC)CC2)nc2cc([N+](=O)[O-])ccc21 | -1.1 | 7.5 | -6.0 | 0.2%
8 | Cc1[nH]c2ccccc2c(=O)c1CNCc1ccccc1 | -13.3 | . | . | -27.2%
9 | CCc1ccc(Nc2n[n+](-c3ccccc3)c(-c3ccc(OC)c(Br)c3)s2)cc1 | . | 3.0 | 29.8 | 1.6%
10 | CCOC(=O)CNC(=O)C1(/C=C/c2ccccc2)CC(=O)N1c1ccc(C)cc1 (stereo not drawn) | -7.3 | -2.4 | ? | -1.8%

no. | gsp antagonist | Sfp PPTase inh | gsp agonist
1 | -5.2% | 7.6% | 5.2%
2 | -2.8% | 9.1% | 4.6%[15.4 µM]
3 | -19.8% | 6.2% | -32.4%[inhibitor]
4 | 0.7% | 6.9% | -1.8%[15.4 µM]
5 | -13.3% | ? | -5.2%[15.4 µM]
6 | 0.1% | 15.0% | -35.0%[15.4 µM]
7 | -5.3% | 1.1% | 0.3%[15.4 µM]
8 | . | . | 20.8%
9 | -2.0% | -6.0% | -12.5%
10 | 3.0% | 11.1% | 7.1%

(listing goes on)
no. | smiles | CtBP-E1A blk | Menin MLL FP FL | TRPV1 PAM | ClpP mod
11 | CCc1ccccc1NC(=O)CN(C)Cc1nc(N)nc(Nc2ccccc2C)n1 | -8.3 | 0.3 | -1.0 | -0.3%
12 | CC(C)OC(=O)c1nn2c(C(F)(F)F)cc(-c3ccc(Br)o3)nc2c1Br | -18.6 | 0.5 | 11.1 | -1.4%
13 | CCc1ccc2nc(NC(=O)C3CSC4(C)CCC(=O)N34)sc2c1 (stereo not drawn) | -5.5 | . | -9.0 | .
14 | Nc1ccn(Cc2cccc(Cl)c2)n1 | -20.8 | 2.4 | 3.6 | .
15 | COc1ccc(OC)c(Nc2nc(-c3sc(C)nc3C)cs2)c1 | -28.3 | 4.8 | -34.6 | -6.5%
16 | O=C(Nc1cccc(C(F)(F)F)c1)C1CCCO1 (stereo not drawn) | 5.0 | -0.5 | -0.6 | 1.4%
17 | Cc1nn(CC(C)C)c(Cl)c1C(=O)N(C)CC(=O)Nc1ccc(Cl)cc1 | -4.0 | . | . | 0.7%
18 | Cc1cccc(OCC(=O)OCC(=O)c2c(N)n(C)c(=O)n(C)c2=O)c1 | -6.8 | 3.1 | 1.4 | 0.5%
19 | CCCCN(C(=O)CSCC(=O)Nc1ccc(C)cc1)c1c(N)n(CC(C)C)c(=O)[nH]c1=O | -3.1 | . | 4.4 | -1.2%
20 | CN1CCN(S(=O)(=O)c2cccc(C(=O)N(C)Cc3cccs3)c2)CC1 | 3.8 | . | -4.3 | -2.7%

no. | gsp antagonist | Sfp PPTase inh | gsp agonist
11 | 7.7% | 4.7% | -48.1%[inhibitor]
12 | 6.7% | 0.7% | 24.2%
13 | -10.4% | . | 36.5%[15.4 µM]
14 | 7.8% | 17.6% | 1.9%[15.4 µM]
15 | -16.7% | ? | 21.2%
16 | 13.9% | 16.8% | ?
17 | . | . | -75.1%[inhibitor]
18 | 0.1% | 13.7% | 0.0%
19 | 6.3% | . | -2.2%
20 | 15.4% | . | -14.7%

Additional records follow:
no. | smiles | CtBP-E1A blk | Menin MLL FP FL | TRPV1 PAM | ClpP mod
21 | COCC(=O)N(C)C[C@H]1N[C@@](Cc2ccccc2)(C(=O)OC)[C@H]2C(=O)N(Cc3ccccc3)C(=O)[C@@H]12 | 9.0 | . | . | 0.8%
22 | NC(=O)C1CCN(C(=O)c2cc3c(s2)CCCC3)CC1 | -0.3 | . | -12.7 | .
23 | COc1ccccc1CNC1CCN(Cc2ccccc2)CC1 | -21.9 | -4.8 | ? | -1.9%
24 | CSc1ccc(S(=O)(=O)NCC(=O)OCC(=O)NC2(C#N)CCCCC2)cc1[N+](=O)[O-] | 0.0 | . | 22.2 | .
25 | Cc1ccccc1C(=O)Nc1ccc(N2CCCC2)cc1 | -6.2 | -1.3 | -13.0 | -2.9%
26 | CC(C)Cc1nc2oc3c(NCC(C)O)ncnc3c2c2c1CCCC2 (stereo not drawn) | -19.4 | 2.8 | -26.8 | 4.0%
27 | CC1=C(CCN2CCN(C(C)C)C(CCO)C2)C(C)(C)CCC1 (stereo not drawn) | 1.0 | -1.4 | -1.7 | .
28 | CCS(=O)CCSC(=N)N (stereo not drawn) | 7.1 | -0.4 | 4.8 | -1.9%
29 | NC(=O)c1ccccc1N/C=C1\CCCCC1=O | . | -0.4 | 16.3 | -24.6%
30 | O=C(OCc1nc2ccccc2s1)c1cnccn1 | 9.4 | -4.1 | ? | -2.2%

no. | gsp antagonist | Sfp PPTase inh | gsp agonist
21 | -0.5% | . | .
22 | 1.3% | . | -15.5%[15.4 µM]
23 | 5.5% | -4.0% | -3.1%[15.4 µM]
24 | -13.3% | . | 6.8%[15.4 µM]
25 | -19.2% | -16.8% | 19.4%
26 | -6.0% | -11.1% | 0.1%
27 | 14.0% | 8.8% | -0.7%[15.4 µM]
28 | 17.4% | 18.7% | -50.2%[inhibitor]
29 | 50.1µM* | 22.1% | 20.7%
30 | 11.0% | 8.8% | 0.4%

Next section:
no. | smiles | CtBP-E1A blk | Menin MLL FP FL | TRPV1 PAM | ClpP mod
31 | CCOC(=O)c1cnc(SC)nc1Oc1cccc(NS(=O)(=O)c2ccc(Cl)cc2)c1 | 7.6 | 2.5 | 1.5 | -10.8%
32 | Fc1ccc(CN2CCN3CCCC3C2C2CCCCC2)cc1F (stereo not drawn) | -14.6 | 0.9 | 27.6 | -3.0%
33 | O=C(CN1CCN(c2ccc(Cl)cc2)CC1)N1CCCC1 | 0.0 | 0.7 | 3.3 | -0.9%
34 | C[C@@H]1CN([C@H](C)CO)C(=O)CCCn2nncc2CO[C@@H]1CN(C)C(=O)Nc1cccc2ccccc12 | -23.0 | . | . | ?
35 | C/C(=N\n1nnnc1Nc1ccccc1)c1ccc(N)cc1 | . | -0.5 | -12.5 | .
36 | O=C(NCC(c1cccs1)N1CCOCC1)c1ccccc1NS(=O)(=O)c1ccc(Cl)cc1 (stereo not drawn) | 1.5 | 2.9 | 14.0 | .
37 | Cc1occc1C(=O)NNC(=S)NCc1ccccc1 | -12.1 | 5.0 | -1.0 | -1.5%
38 | CCOC(=O)C(=Cc1ccc(-n2ccnc2)cc1)C(=O)OCC | 0.3 | 1.5 | 21.7 | .
39 | COc1ccccc1NS(=O)(=O)c1cc(NC(=O)c2cccc(S(=O)(=O)N(C)C)c2)ccc1N1CCOCC1 | 13.5 | . | 5.9 | -3.0%
40 | CC(=O)n1cc(Nc2ccc([N+](=O)[O-])cc2)c2ccccc21 | . | 0.0 | 14.4 | -29.4%

no. | gsp antagonist | Sfp PPTase inh | gsp agonist
31 | 5.4% | 10.1% | 18.2%
32 | 2.2% | -6.1% | 11.7%
33 | 18.3% | 15.3% | -20.4%
34 | . | . | -89.3%[inhibitor]
35 | . | 1.0% | .
36 | -16.4% | 16.7% | -2.2%[15.4 µM]
37 | 8.1% | 12.3% | -16.3%
38 | -3.1% | -29.4% | -31.8%[inhibitor]
39 | -10.6% | . | 24.6%
40 | -1.5% | 3.9% | -23.6%

Going on with the list.
no. | smiles | CtBP-E1A blk | Menin MLL FP FL | TRPV1 PAM | ClpP mod
41 | O=C(OCC(=O)N1CCCC1)c1cccs1 | 4.1 | 4.7 | -4.4 | 1.2%
42 | COc1ccc(-c2cc(C(=O)N3CCCCCC3)c3cc(C)ccc3n2)cc1 | 2.8 | . | -2.0 | 4.2%
43 | CC1CCN(C(=O)CSc2nc3ncccc3[nH]2)CC1 | . | . | ? | -5.3%
44 | CC(OC(=O)/C=C/c1ccc2ccccc2n1)C(=O)N(C)c1ccccc1 (stereo not drawn) | -11.9 | . | 26.8 | -1.9%
45 | C=CCn1c(NC(=O)c2ccc(Br)o2)c(C(=O)OCC)sc1=S | -3.2 | 2.4 | 13.0 | -0.1%
46 | COc1ccc(/C=C/C(=O)OCC(=O)NCCC2=CCCCC2)cc1OC | -22.2 | 0.3 | -9.0 | -1.8%
47 | COc1ccc(/C=N/Nc2cc(C)nc3ccc(OC)cc23)c(OC)c1 | -27.0 | -10.0 | 2.2 | -2.2%

no. | gsp antagonist | Sfp PPTase inh | gsp agonist
41 | 4.3% | -5.9% | -18.7%
42 | -31.2% | ? | 29.8%
43 | 2.0% | -26.5% | 4.5%
44 | 1.5% | . | -29.9%
45 | -10.8% | ? | -57.0%[inhibitor]
46 | -14.1% | -3.0% | 17.0%
47 | -12.7% | 50.1µM* | -3.6%[15.4 µM]

Screening results deposited in PubChem BioAssay by National Center for Advancing Translational Sciences (NCATS).
